Source: PubChem
Env fusion inh: blocks HIV Env-driven cell-cell fusion; HeLa-JRFL Env/CEM21 cell fusion, luciferase; inhibition, % at 12.3 µM; AID 651610; 1.1% of 360,000 active;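 active = mean replicate inhibition score of at least 50 and every replicate individually at or above 50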;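 note: 0% = plate neutral controls and 100% = maraviroc near 300 nM; one replicate is shown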
CSC inhib: blocks cancer stem cells; 1.1% of 300,000 active; cancer stem cell-like cells viability, luminescence; inhibition, % at 7.5 µM;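 active = mean at 75% or more and at least half the replicates too; tested in HMLE shEcad cells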;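 note: 0% = median of negative and 100% = median of positive control wells; the first replicate is given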
eIF4H FP inh: inhibitors of RNA binding by human eIF4H | Q15056 | eIF4H fluorescence polarization binding assay | inhibition, % at 35 µM | 0.94% of 290,000 active | AID 2012;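 active = 50% or more with normal probe brightness, or confirmed in later tests; about a fifth of its hits are not listed in these tables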;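 note: calls also rest on retests at 20 µM and on dose response follow-up; 0% = protein and probe with vehicle and 100% = probe without protein; strong numbers were not always called active; many hits fall short of the cut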
Yeast UUG start: yeast start codon fidelity modulation. AID 602363. S. cerevisiae UUG-firefly luciferase reporter, luminescence/redox ratio. activity score, % at 18.7 µM. 0.13% of 350,000 active;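 active = replicate mean at a twofold rise or more, about +100% in these data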;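 note: firefly luciferase made from a UUG start codon reports start codon fidelity; reporter light over untreated wells divided by growth signal over untreated wells; some hits fall short of that in this replicate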
Rce1 inhib: inhibitors of yeast Ras-converting enzyme; 0.27% of 290,000 active; calls only; yeast membranes, quenched prenylated peptide cleavage fluorescence;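 active = fall in fluorescence gain of 50% or more versus controls, with final raw signal at or below 3038400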;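 note: plate controls were neutral control wells for no effect and wells lacking membranes for full effect; tested at 10 µM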
PABP FP inh: PABP-poly(A) binding inhibition; P11940; PABP-poly(A) RNA binding, fluorescence polarization; inhibition, % at 35 µM; 1% of 290,000 active; AID 2014;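 active = 50% or more with normal probe brightness, or confirmed in later tests; about a fifth of its hits are not listed in these tables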;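 note: calls also rest on retests at 20 µM and on dose response follow-up; controls were probe without protein and protein plus probe with vehicle; some compounds called inactive have numbers as strong as hits; many hits fall short of the cut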
Target sequence (P11940 whole entry, looked up): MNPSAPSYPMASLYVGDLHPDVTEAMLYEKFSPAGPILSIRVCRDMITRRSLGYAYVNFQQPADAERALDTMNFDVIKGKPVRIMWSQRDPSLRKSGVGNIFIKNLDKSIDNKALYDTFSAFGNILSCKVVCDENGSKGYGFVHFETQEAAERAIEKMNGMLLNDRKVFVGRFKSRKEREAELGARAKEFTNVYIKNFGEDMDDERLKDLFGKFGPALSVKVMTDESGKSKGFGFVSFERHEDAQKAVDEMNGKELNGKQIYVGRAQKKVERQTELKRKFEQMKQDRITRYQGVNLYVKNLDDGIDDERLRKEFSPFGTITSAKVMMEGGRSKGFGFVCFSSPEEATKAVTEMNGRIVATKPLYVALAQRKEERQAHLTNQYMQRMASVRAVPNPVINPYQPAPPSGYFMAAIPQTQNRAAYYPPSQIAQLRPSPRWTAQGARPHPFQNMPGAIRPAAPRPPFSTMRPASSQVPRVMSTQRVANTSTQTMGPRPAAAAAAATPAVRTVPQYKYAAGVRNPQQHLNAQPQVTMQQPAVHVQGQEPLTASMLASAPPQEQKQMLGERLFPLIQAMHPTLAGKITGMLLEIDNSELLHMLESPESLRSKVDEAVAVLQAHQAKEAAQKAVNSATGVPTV
MT1-MMP act inh: MT1-MMP (human) activation inhibition; HT1080 RFP-PRO-GFP cells, GFP/RFP ratio fluorescence, overnight; percent of plate control window, DMSO zero; GFP/RFP ratio change, % at 20 µM; 0.061% of 360,000 active;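 active = GFP/RFP ratio change of at least 30% with cell ATP level not reduced by more than half and red fluorescence within 50% of control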; note: strong numbers were not always called active
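Assay system: HT1080 cells carrying an RFP-PRO-GFP reporter | Dosing: Single dose of 20 µM compound, 1% DMSO final | Incubation: Cells overnight before dosing, compound overnight, 37 °C, 5% CO2 | Evaluation: GFP/RFP fluorescence ratio | Control set: DMSO and RFP-L50D-GFP cell wells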
MT1-MMP act inh RFP: also measured in MT1-MMP act inh; calls as there; RFP signal change, %; measured here: RFP expression control read;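 0 = vehicle wells; hits needed this value within 50% of zero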
Starred values were filed as active, the others as inactive; & = joins results of further samples.

COc1ccc(Br)c(Cn2c(C)c(C(=O)NCc3ccc(F)cc3)sc2=O)c1 was read as Env fusion inh -2, Yeast UUG start -14, MT1-MMP act inh 2 and MT1-MMP act inh RFP -7.
CCO[C@@H]1OC(C(=O)NCc2ccccc2)=C[C@H](c2csc3ccccc23)[C@H]1CCCO was read as Env fusion inh 11, CSC inhib -2, eIF4H FP inh -3, Yeast UUG start -2, Rce1 inhib inactive, PABP FP inh -14, MT1-MMP act inh 7 and MT1-MMP act inh RFP -8.
`CCc1ccc(N(CC(=O)O)S(=O)(=O)c2c(C)noc2C)cc1` gave Env fusion inh 0, CSC inhib -7, eIF4H FP inh -6, Yeast UUG start -7, Rce1 inhib inactive, PABP FP inh -2, MT1-MMP act inh 0 and MT1-MMP act inh RFP 4.
For O=S(=O)(c1ccc(Cl)cc1)N1CCN(Cc2cccnc2)CC1 the results were Env fusion inh -5, eIF4H FP inh 0, Yeast UUG start -13, Rce1 inhib inactive, PABP FP inh -2, MT1-MMP act inh -2 and MT1-MMP act inh RFP -2.
Screening O=C1NC[C@H](Cc2ccc(O)cc2)N(CCc2cccc3ccccc23)C1=O returned Env fusion inh 1, CSC inhib -7, eIF4H FP inh -9, Yeast UUG start 7, Rce1 inhib inactive, PABP FP inh 4, MT1-MMP act inh 0 and MT1-MMP act inh RFP -2.
COc1ccccc1C(=O)NC(=O)COC(=O)c1cccc(NC(C)=O)c1 was read as Env fusion inh 16, CSC inhib -2, eIF4H FP inh -2, Yeast UUG start -2, Rce1 inhib inactive, PABP FP inh 6, MT1-MMP act inh -4 and MT1-MMP act inh RFP 0.
For CC(=O)C1=C(C)NC(=O)NC1c1ccc2c(c1)OCO2 (configuration not stated) the results were Env fusion inh 23, CSC inhib 3, eIF4H FP inh 15, Yeast UUG start -17, Rce1 inhib inactive, PABP FP inh 19, MT1-MMP act inh -2 and MT1-MMP act inh RFP 2.
`Cc1nc2c(-c3ccc(F)cc3)c(C)nn2c(C)c1CCC(=O)N1CCN(c2ccc(F)cc2)CC1` gave Env fusion inh 56*, CSC inhib 25, eIF4H FP inh 0, Yeast UUG start 3, Rce1 inhib inactive, PABP FP inh 6, MT1-MMP act inh 12 and MT1-MMP act inh RFP -2.
For Cn1c([N+](=O)[O-])cnc1COC(N)=O the results were Env fusion inh 22, CSC inhib 0, eIF4H FP inh 4, Yeast UUG start 2, Rce1 inhib inactive, PABP FP inh 9, MT1-MMP act inh 2 and MT1-MMP act inh RFP 3.
`OCc1cc(C(O)CNCCCCCCOCCCCc2ccccc2)ccc1O` (configuration not stated) gave Env fusion inh 8, CSC inhib 19&18, eIF4H FP inh 2, Yeast UUG start -18, Rce1 inhib inactive, PABP FP inh 6, MT1-MMP act inh 1 and MT1-MMP act inh RFP 0.
CCc1ccc2nc(N(CCCN(C)C)C(=O)c3ccc(S(=O)(=O)N4CCCC4)cc3)sc2c1 was read as Env fusion inh 0, CSC inhib -9, eIF4H FP inh 0, Yeast UUG start 15, Rce1 inhib inactive, PABP FP inh 8, MT1-MMP act inh -10 and MT1-MMP act inh RFP -4.
`Cc1nccn1CC(=O)N/N=C/c1ccc(O)c(O)c1` gave CSC inhib 5, eIF4H FP inh 11, Rce1 inhib inactive and PABP FP inh -3.
For CCCCn1c(N)c(N(CCOC)C(=O)COC(=O)c2cc(CC)c(C)s2)c(=O)[nH]c1=O the results were Env fusion inh 2, CSC inhib 2, Yeast UUG start -2, MT1-MMP act inh -3 and MT1-MMP act inh RFP 0.
For O=S(=O)(c1ccc(Br)cc1)N1CCC2(CC1)OCCO2 the results were Env fusion inh -3, CSC inhib -11, eIF4H FP inh 2, Yeast UUG start 5, Rce1 inhib inactive, PABP FP inh 10, MT1-MMP act inh -2 and MT1-MMP act inh RFP -1.
Screening COCCn1c(SCCN2CCCCC2)nc2ccccc2c1=O returned Env fusion inh -75, CSC inhib -11, eIF4H FP inh 3, Yeast UUG start -18, Rce1 inhib inactive, PABP FP inh 7, MT1-MMP act inh -4 and MT1-MMP act inh RFP 2.
`C[C@H](NC(=O)c1nc[nH]c1C(=O)N1CCN(C(=O)OC(C)(C)C)CC1)c1ccccc1` gave Env fusion inh 28, CSC inhib 18, Yeast UUG start -14, MT1-MMP act inh 1 and MT1-MMP act inh RFP 3.
`CCOCCCn1c(=S)[nH]c2cc3c(cc2c1=O)OCO3` gave Env fusion inh -26, CSC inhib -11, eIF4H FP inh 2, Yeast UUG start -28, Rce1 inhib inactive, PABP FP inh 0, MT1-MMP act inh -1 and MT1-MMP act inh RFP 4.
Screening CCC(=O)Nc1sc2c(c1C#N)CC(C)(C)NC2(C)C returned Env fusion inh 3, CSC inhib -14, eIF4H FP inh -4, Yeast UUG start -13, Rce1 inhib inactive, PABP FP inh 0, MT1-MMP act inh 1 and MT1-MMP act inh RFP 2.
`Cc1ccc(S(=O)(=O)n2ccc3cccnc32)cc1` gave Env fusion inh -113, CSC inhib -9, eIF4H FP inh 3, Yeast UUG start -18, Rce1 inhib inactive, PABP FP inh -3, MT1-MMP act inh 3 and MT1-MMP act inh RFP 4.
For COCCN(C(=O)C1=COCCO1)c1c(N)n(Cc2ccccc2)c(=O)[nH]c1=O the results were Env fusion inh 7, CSC inhib -7, eIF4H FP inh 13, Yeast UUG start -19, PABP FP inh -1, MT1-MMP act inh -1 and MT1-MMP act inh RFP 0.
`C=CCn1c(C#N)c(N)sc1=N` gave CSC inhib -4, eIF4H FP inh 6, Yeast UUG start -21, Rce1 inhib inactive, PABP FP inh -2, MT1-MMP act inh -6 and MT1-MMP act inh RFP -4.
For CCc1nccn1S(=O)(=O)c1ccc(Br)cc1Br the results were CSC inhib -7, eIF4H FP inh 5, Yeast UUG start -1, Rce1 inhib inactive, PABP FP inh -5, MT1-MMP act inh 0 and MT1-MMP act inh RFP 3.
For Cn1cc(C(=O)NCc2ccccc2F)cn1 the results were Env fusion inh -16, CSC inhib -5, eIF4H FP inh 0, Yeast UUG start -4, Rce1 inhib inactive, PABP FP inh 2, MT1-MMP act inh 2 and MT1-MMP act inh RFP 6.
For Cc1ccc2[nH]c(C(=O)O)c(NC(=O)CN3CCN(c4cccc(C)c4C)CC3)c2c1 the results were CSC inhib 15, eIF4H FP inh 6, Yeast UUG start -32, Rce1 inhib inactive, PABP FP inh 6, MT1-MMP act inh 6 and MT1-MMP act inh RFP -2.
`CCCOc1ccc(NC(=O)Cc2ccc(S(=O)(=O)N3CCOCC3)s2)cc1OCCC` gave Env fusion inh 20, CSC inhib -5, Yeast UUG start 21, Rce1 inhib inactive, MT1-MMP act inh 1 and MT1-MMP act inh RFP -9.
`CCOC(=O)c1cc2c(nc1N)CC(C)(CC)OC2` (configuration not stated) gave CSC inhib -12, eIF4H FP inh -4, Yeast UUG start -10, Rce1 inhib inactive, PABP FP inh 1, MT1-MMP act inh 2 and MT1-MMP act inh RFP 5.
`COc1ccc(/C=N/NS(=O)(=O)c2ccc(C)cc2)cc1OC(=O)c1ccccc1` gave CSC inhib 1, eIF4H FP inh -3, Yeast UUG start 10, Rce1 inhib inactive, PABP FP inh -4, MT1-MMP act inh 0 and MT1-MMP act inh RFP -3.
`CC(C)(C)C(=O)CN1C(=O)NC(c2ccccc2)(c2ccccc2)C1=O` gave Env fusion inh 7, CSC inhib -1, eIF4H FP inh 3, Yeast UUG start -16, Rce1 inhib inactive, PABP FP inh -7, MT1-MMP act inh -2 and MT1-MMP act inh RFP -1.
`Cc1ccc(NC(=O)c2ccc3c(=O)n4c(nc3c2)CCCCC4)cc1F` gave Env fusion inh -16, eIF4H FP inh -13, Yeast UUG start -15, Rce1 inhib inactive, PABP FP inh 0, MT1-MMP act inh 1 and MT1-MMP act inh RFP -5.
`COc1cccc2sc(N(CCN(C)C)C(=O)c3ccc(S(=O)(=O)N4CCCC4)cc3)nc12` gave Env fusion inh -30, CSC inhib 6, eIF4H FP inh -5, Yeast UUG start -5, Rce1 inhib inactive, PABP FP inh -16, MT1-MMP act inh -1 and MT1-MMP act inh RFP 1.
Screening CCn1c(SCC(=O)c2cc(OC)ccc2OC)nnc1-c1ccncc1 returned CSC inhib 4, Yeast UUG start -14, Rce1 inhib inactive, MT1-MMP act inh 1 and MT1-MMP act inh RFP 3.
Screening CC(=O)c1cccc(N(CC(=O)NCC2CCCO2)C(=O)CCC(=O)Nc2cc(C)on2)c1 (configuration not stated) returned Env fusion inh -12, eIF4H FP inh -7, Yeast UUG start -14, Rce1 inhib inactive, PABP FP inh -2, MT1-MMP act inh -1 and MT1-MMP act inh RFP 0.
CCOc1ccc(OCCNC(=O)c2ccc3c(c2)nnn3CC)cc1 was read as Env fusion inh -9, CSC inhib -1, Yeast UUG start -22, MT1-MMP act inh 2 and MT1-MMP act inh RFP -2.
Screening CCC(C)NC(=O)CC(NS(=O)(=O)c1ccc(NC(C)=O)cc1)C(C)C (configuration not stated) returned Env fusion inh 2, CSC inhib 4, eIF4H FP inh -7, Yeast UUG start -15, Rce1 inhib inactive, PABP FP inh -2, MT1-MMP act inh -2 and MT1-MMP act inh RFP 2.
For Cc1cc(C)cc(OCC(=O)OCC(=O)N(C)CC(=O)Nc2ccc(F)cc2)c1 the results were Env fusion inh -7, CSC inhib 4, Yeast UUG start 12, Rce1 inhib inactive, MT1-MMP act inh 1 and MT1-MMP act inh RFP 1.
For O=C(Nc1cccc(C(F)(F)F)c1)NC1CCCCC1 the results were CSC inhib 12, eIF4H FP inh 1, Yeast UUG start -10, Rce1 inhib inactive, PABP FP inh 0, MT1-MMP act inh -4 and MT1-MMP act inh RFP -8.

Of the compounds above, 3 have bromine:
COc1ccc(Br)c(Cn2c(C)c(C(=O)NCc3ccc(F)cc3)sc2=O)c1 was read as Env fusion inh -2, Yeast UUG start -14, MT1-MMP act inh 2 and MT1-MMP act inh RFP -7.
For O=S(=O)(c1ccc(Br)cc1)N1CCC2(CC1)OCCO2 the results were Env fusion inh -3, CSC inhib -11, eIF4H FP inh 2, Yeast UUG start 5, Rce1 inhib inactive, PABP FP inh 10, MT1-MMP act inh -2 and MT1-MMP act inh RFP -1.
For CCc1nccn1S(=O)(=O)c1ccc(Br)cc1Br the results were CSC inhib -7, eIF4H FP inh 5, Yeast UUG start -1, Rce1 inhib inactive, PABP FP inh -5, MT1-MMP act inh 0 and MT1-MMP act inh RFP 3.

Additional structures
Screening COc1ccc(N2CCN(S(=O)(=O)/C=C/c3ccccc3)CC2)cc1 returned Env fusion inh 14, CSC inhib -11, eIF4H FP inh 1, Yeast UUG start -22, Rce1 inhib inactive, PABP FP inh 0, MT1-MMP act inh 0 and MT1-MMP act inh RFP 0.
Screening Cn1cc(C2OC(=O)c3ccccc32)c2ccccc21 (configuration not stated) returned Env fusion inh 25, Yeast UUG start -14, MT1-MMP act inh 6 and MT1-MMP act inh RFP -3.
For COc1ccc2[nH]c3c(NCCN(C(C)C)C(C)C)ncnc3c2c1 the results were CSC inhib -12, eIF4H FP inh -6, Yeast UUG start -20, PABP FP inh 14, MT1-MMP act inh 2 and MT1-MMP act inh RFP 3.
Screening Cc1oc(-c2ccccc2)nc1Cn1cccc1C1=NC(c2ccccc2)CO1 (configuration not stated) returned Env fusion inh 58, CSC inhib 37, eIF4H FP inh -5, Yeast UUG start -2, Rce1 inhib inactive, PABP FP inh -3, MT1-MMP act inh -8 and MT1-MMP act inh RFP -18.
`CC12CC(c3ccccc3O1)C(/C(N)=N/NC(=O)c1ccc(F)cc1)C(=O)N2` (configuration not stated) gave Env fusion inh -121, CSC inhib 8, eIF4H FP inh -5, Rce1 inhib inactive, PABP FP inh 2, MT1-MMP act inh 5 and MT1-MMP act inh RFP 4.
Screening CN(C(=O)COC(=O)c1nc(Cl)ccc1Cl)C1CCS(=O)(=O)C1 (configuration not stated) returned Env fusion inh -10, eIF4H FP inh 10, Yeast UUG start -11, Rce1 inhib inactive, PABP FP inh 1, MT1-MMP act inh -3 and MT1-MMP act inh RFP 3.
